# CtBP-E1A blk: CtBP/E1A binding inhibition; 0.49% of 340,000 active; AlphaScreen GST-E1A/His-CtBP binding, 1536-well; stronger effect = lower value; control for the full effect not named in the record; activity change, % (no concentration beside the values); in the data active means activity change below about -65%; inconclusive means about -30% to -65%; inactive means above about -30%; further: on the % scale 0 is the no-effect control and ±100 the full control effect; compound concentration not given in the record
#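 In 5 uL wells, 23 nL compound meets equimolar GST-E1A and His-CtBP (5X stock 125 nM each) for 2 h, 37 °C. Beads (5X, 50 ug/mL) then 1 h, 37 °C, dark.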
# Sfp PPTase inh: inhibitors of Bacillus subtilis Sfp phosphopantetheinyl transferase. Biochemical Sfp PPTase activity, qHTS. Q9F4F7. Potency, µM, inactives show max response, negative = inhibition, most hits filed as inhibitors. 3.5% of 310,000 active; active means well fitted inhibition curve with a large enough effect; inconclusive means small, poorly fitted or top-dose-only effect, or another doubt; inactive means no such curve, though single readings can be large or run the other way;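 further: the enzyme is Sfp with the accession as filed and its product quenches rhodamine fluorescence; potency means the concentration at half of the fitted maximal effect; 0% = enzyme reaction without inhibitor and -100% = no enzyme wells; top concentration of the series not given in the record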
#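 Reaction rates are the 30-min fluorescence difference (ex 525, em 598 nm) in wells containing 15 nM Sfp, 5 uM rhodamine-CoA and 12.5 uM BHQ-2-YbbR at pH 7.6 with 10 mM MgCl2.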
# ClpP mod: qHTS Assay for Activators of ClpP; AID 651965, 2013; purified B. subtilis ClpP, FRET peptide cleavage, 20 min; 1.9% of 340,000 active; Potency, µM (series often up to 57.5 µM), for the others: top-dose activity change, negative = active; ATP-dependent Clp protease proteolytic subunit (Bacillus subtilis (strain 168)), P80244; active = well fitted falling curve with a large enough effect; inconclusive = small, poorly fitted or top-dose-only effect; inactive = no such curve, though single readings can be large or run the other way; further: potency means the concentration at half of the fitted maximal effect; the source files actives as falling curves though it sought activators and does not explain the sign; nearly all actives have a fitted effect of over 65% in size; many hits overshoot -100%
# Target sequence (P80244 whole entry, looked up): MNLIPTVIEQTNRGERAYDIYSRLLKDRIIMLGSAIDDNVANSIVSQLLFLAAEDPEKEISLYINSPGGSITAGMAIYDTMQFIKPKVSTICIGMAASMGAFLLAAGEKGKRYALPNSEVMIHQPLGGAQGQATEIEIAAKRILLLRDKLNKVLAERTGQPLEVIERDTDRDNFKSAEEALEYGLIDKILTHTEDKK
#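 FRET quenching reversal measured ClpP activation: 10 microg/mL B. subtilis ClpP at pH 8 with the FRET-FV decapeptide, read at 430 nm after 320 nm excitation. The 20-min minus 0-min signal was scaled between DMSO/no-enzyme wells and ADEP (5.8 microM final).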
# Menin MLL FP FL: menin-MLL binding inhibition, fluorescein peptide | Fluorescence polarization, fluorescein-MLL peptide displacement from menin | FP activity change, % at 61.4 µM | 290,000 tested, under 10 active | AID 1766; inconclusive = falling polarisation curve, or a change in total fluorescence; inactive = total fluorescence flat and polarisation flat or rising; no compound was filed as active; the % refers to the polarisation; negative = inhibition;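 further: % of control where 0% means no effect; inhibitors lower the polarisation; unlabelled MLL peptide was the positive control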
# TRPV1 potentiator: human TRPV1 potentiation; Q8NER1; TRPV1-expressing cells, Fluo-8 calcium influx, capsaicin EC20 potentiation; host cell line not named in the record; control for the full effect not named in the record; potentiation, % at 8.33 µM; 0.02% of 320,000 active; active means potentiation above 80%; inconclusive means 30% to 80%; inactive means below 30%; further: 0% is about no effect
# Target sequence (Q8NER1 whole entry, looked up): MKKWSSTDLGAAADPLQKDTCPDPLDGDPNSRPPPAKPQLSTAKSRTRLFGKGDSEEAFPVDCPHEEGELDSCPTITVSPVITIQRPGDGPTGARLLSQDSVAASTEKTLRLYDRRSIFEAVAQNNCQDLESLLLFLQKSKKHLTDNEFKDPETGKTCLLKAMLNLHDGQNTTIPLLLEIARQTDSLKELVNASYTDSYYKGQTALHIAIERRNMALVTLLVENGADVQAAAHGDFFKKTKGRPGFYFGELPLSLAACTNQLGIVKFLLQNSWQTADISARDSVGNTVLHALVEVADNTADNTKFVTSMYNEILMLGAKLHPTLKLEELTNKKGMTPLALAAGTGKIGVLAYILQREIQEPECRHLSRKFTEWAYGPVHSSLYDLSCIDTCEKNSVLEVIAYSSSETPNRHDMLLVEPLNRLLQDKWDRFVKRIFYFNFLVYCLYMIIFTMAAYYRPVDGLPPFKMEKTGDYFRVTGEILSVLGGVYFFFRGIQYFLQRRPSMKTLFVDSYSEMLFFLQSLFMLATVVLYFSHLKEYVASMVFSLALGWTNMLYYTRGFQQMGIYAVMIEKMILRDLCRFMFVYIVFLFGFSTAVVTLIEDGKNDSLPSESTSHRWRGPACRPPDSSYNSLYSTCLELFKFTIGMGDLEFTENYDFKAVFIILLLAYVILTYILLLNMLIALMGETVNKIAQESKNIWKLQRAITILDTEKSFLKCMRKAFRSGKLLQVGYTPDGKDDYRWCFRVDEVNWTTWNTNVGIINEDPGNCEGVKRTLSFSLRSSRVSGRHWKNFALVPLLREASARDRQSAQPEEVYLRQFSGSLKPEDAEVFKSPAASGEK
#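 Fluo-8 calcium influx in TRPV1-expressing cells, kinetic read (ex 480/em 520 nm). Compound added and read 3 min for agonist activity, followed by capsaicin at EC20 final and 2 min further read for enhancement.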
# gsp agonist: agonists of gsp mutant (McCune-Albright syndrome); AID 624287; gsp mutant cells, cAMP HTRF, 30 min; control for the full effect not named in the record; Potency, µM (top dose mostly 76.9 µM), for inactives: at the highest dose activation (cAMP increase), most hits filed as activators; 0.13% of 340,000 active; active = well fitted activation curve with a large enough effect; inconclusive = small, poorly fitted or top-dose-only effect, or another doubt; inactive = no such curve, though single readings can be large or run the other way; cell line not stated here;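 further: phosphodiesterase inhibitor Ro 20-1724 added with compounds to block cAMP breakdown; potency means the concentration at half of the fitted maximal effect; nearly all actives have a fitted effect of over 60% in size; about a fifth of the inactives were tested at one dose only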
#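 Cells stably selected in G418 were plated at 2000/well, grown 16-24 hr, then given compounds in DMSO with the PDE inhibitor […] (300 uM solution added) for 30 min at 37C; cAMP was read by HTRF.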
# gsp antagonist: gsp mutant antagonism | Potency, µM (highest dose often 76.9 µM), for the others: top-dose activity change, negative = inhibition, hits mostly inhibitors | gsp-mutant cells, cAMP HTRF, 30 min; control for the full effect not named in the record | 0.4% of 340,000 active; active = falling curve of any shape with a large fitted effect; inconclusive = falling curve, mostly with a smaller effect; inactive = flat or rising curve; cell line not stated here;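 further: intracellular cAMP measured with PDE inhibitor Ro 20-1724 present during compound exposure; potency means the concentration at half of the fitted maximal effect; on the % scale 0 is the no-effect control and ±100 the full control effect; nearly all actives have a fitted effect of over 65% in size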
#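 HTRF cAMP measurement after 30 min RT detection following 30 min, 37C compound treatment alongside […] (added as 300 uM solution) in G418-selected cells seeded at 2000/well and grown 16–24 h.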
# An asterisk follows results filed as active; ? = inconclusive; . = no result given; & = joins results of further samples; [ ] = another dose, or the depositor's remark. An unsorted share of the library; about 5.3% have a hit in one of these screens.
# The line under a structure holds: CtBP-E1A blk	Sfp PPTase inh	ClpP mod	Menin MLL FP FL	TRPV1 potentiator	gsp agonist	gsp antagonist
Cc1ccc(OCc2nnc(SCC(=O)Nc3sc(C)c(C)c3C#N)n2C)cc1
→ -1	4%	0.1%	4.8	-3	-7%	6%
CNS(=O)(=O)c1cccc(C(=O)OC2CCOC2=O)c1 (stereo not given)
→ 0	8%	.	-6.9	-10	3%[15.4 µM]	-21%
CN(C)CCC(O)c1ccccc1 (stereo not given)
→ -2	17%	.	-0.3	-12	-5%[15.4 µM]	-2%
CCOC(=O)C1=C(COC(=O)Cc2ccc(OC)c(OC)c2)NC(=O)NC1C (stereo not given)
→ -2	.	-0.6%	.	-1	-47%[inhibitor]	11%
C(=N/N1CCN(c2ccccc2)CC1)/c1cccs1
→ -27	13%	0.1%	1.2	24	2%	10%
CCn1c(C)nc2cc(C(=O)NNC(=O)[C@@H](NC(=O)c3cc(OC)cc(OC)c3)C(C)C)ccc21
→ 9	.	0.2%	.	.	-9%[15.4 µM]	3%
CC(=O)NC(C)c1nc2ccccc2n1CC(=O)NC(C)CCc1ccccc1 (stereo not given)
→ 2	18%	.	0.1	-2	-54%[inhibitor]	4%
Cc1cccc(-n2c3nc(=O)[nH]c(=O)c-3cc3c(C)nn(-c4ccccc4)c32)c1C
→ 5	6%	3.5%&20%	1.0	-6	-16%	?
c1ccc(Nc2nc(-c3ccncc3)cs2)cc1
→ -8	-16%	-3.1%	4.6	4	-4%	2%
COc1ccc2nc(NC(=O)CSCC(=O)Nc3cc(C)on3)sc2c1
→ -7	.	.	.	6	3%[15.4 µM]	-4%
CC(=O)C(C(C)=O)C(c1ccccc1)c1nc2ccccc2[nH]c1=O (stereo not given)
→ 1	8%	-9.3%	-3.7	6	?	-9%
O=S(=O)(N=S(N1CCCCC1)N1CCCCC1)c1ccccc1
→ 5	15%	0.5%	-0.1	6	19%	-9%
COc1cccc(/C=N/Nc2c(Cl)cncc2Cl)c1O
→ 10	4%	3.4%	1.1	-16	-8%[15.4 µM]	-15%
CN(C)c1nc(SCc2ccc(Cl)cc2)nc2c1CCCC2
→ 34	-8%	-1.6%	0.2	?	9%	6%
Cc1ccc(NC(=O)CCc2nc3ccccc3c(=O)[nH]2)cc1S(=O)(=O)N1CCOCC1
→ 4	.	.	.	-5	3%[15.4 µM]	-16%

# One compound at a time, from the list above. Order of screens: CtBP-E1A blk | Sfp PPTase inh | ClpP mod | Menin MLL FP FL | TRPV1 potentiator | gsp agonist | gsp antagonist
# `C(=N/N1CCN(c2ccccc2)CC1)/c1cccs1` reads -27 | 13% | 0.1% | 1.2 | 24 | 2% | 10%
# `c1ccc(Nc2nc(-c3ccncc3)cs2)cc1` reads -8 | -16% | -3.1% | 4.6 | 4 | -4% | 2%
# `CC(=O)NC(C)c1nc2ccccc2n1CC(=O)NC(C)CCc1ccccc1` (stereo not given) reads 2 | 18% | . | 0.1 | -2 | -54%[inhibitor] | 4%

# Going on with the list.
# The line under a structure holds: CtBP-E1A blk	Sfp PPTase inh	ClpP mod	Menin MLL FP FL	TRPV1 potentiator	gsp agonist	gsp antagonist
CC(=O)c1ccc(N2CCN(C(=O)c3ccc4ccccc4n3)CC2)cc1
→ -12	5%	-4.0%	0.7	2	17%	6%
CCCn1cnc2c(SCc3ccccc3)nc(N)nc21
→ -2	.	.	.	.	12%	4%
Fc1cccc(NC(=S)NCC(c2cccnc2)N2CCOCC2)c1 (stereo not given)
→ -5	7%	0.8%	7.4	5	1%	6%
CCN1CC(CNCc2cn(-c3ccc(OC)cc3)nc2-c2ccccc2Cl)CC1=O (stereo not given)
→ 3	6%	.	2.1	6	37%[15.4 µM]	-12%
O=C(CN1CCCCC1)Nc1c2c(nc3ccccc13)N(c1ccccc1)CC2
→ 5	-24%	.	1.7	22	?	12%
COCCNc1nc(CSc2ccccc2)nc2sc(C)c(C)c12
→ -1	-10%	28µM*	-0.7	-9	-4%	-3%
CC(=O)c1cccc(N(CC(=O)NC2CCCCC2)C(=O)CNC(=O)c2cccs2)c1
→ -2	2%	.	-7.9	22	-1%[15.4 µM]	-2%
COc1ccc(Cl)cc1C(=O)NC(=S)Nc1cc(-c2nc3ccccc3[nH]2)ccc1C
→ -10	-17%	?	6.7	7	28%	-6%
Cc1cc(=O)c2cc(Br)ccc2n1CC(=O)NCc1ccccc1
→ -1	10%	-2.3%	0.9	-14	-2%	-9%
Cc1cc2oc(=O)sc2cc1NS(=O)(=O)c1ccccc1
→ -1	3%	.	-14	-7	14%	12%
N#CC1(c2ccccc2)CCCN1C(=O)c1ccc(Br)o1 (stereo not given)
→ -13	-1%	-1.8%	1.6	1	20%	-2%
NC(=O)C1(N2CCCCC2)CCN(Cc2ccc(F)cc2)CC1
→ -3	10%	-0.5%	-0.8	-4	-30%	-2%
C=CCn1c(COc2ccccc2)nnc1SCC(=O)NCC(=O)OCC
→ 0	-2%	?	2.6	-2	0%	-5%
CCOC(=O)c1ccc(NC(=O)C2CCC(CNc3c(N4CCOCC4)c(=O)c3=O)CC2)cc1 (stereo not given)
→ 2	10%	-1.9%	3.0	19	12%	12%
CNC(=O)CN(C)S(=O)(=O)c1ccc(OC)c(Cl)c1
→ 0	17%	-2.7%	1.1	-4	14%	-5%[15.4 µM]

# Some of the entries so far, bar-delimited:
SMILES | CtBP-E1A blk | Sfp PPTase inh | ClpP mod | Menin MLL FP FL | TRPV1 potentiator | gsp agonist | gsp antagonist
Cc1cc2oc(=O)sc2cc1NS(=O)(=O)c1ccccc1 | -1 | 3% | . | -14 | -7 | 14% | 12%
N#CC1(c2ccccc2)CCCN1C(=O)c1ccc(Br)o1 (stereo not given) | -13 | -1% | -1.8% | 1.6 | 1 | 20% | -2%

# Continued.
# The line under a structure holds: CtBP-E1A blk	Sfp PPTase inh	ClpP mod	Menin MLL FP FL	TRPV1 potentiator	gsp agonist	gsp antagonist
C#CCOC(=O)Nc1ccc(OCC(F)(F)F)nc1
→ 4	5%	0.7%	-0.5	.	0%[15.4 µM]	14%
Cc1cc(C)n2ncc(-c3cccc(Br)c3)c2n1
→ 71	-7%	.	-1.1	1	27%	-16%
CCN(CC)S(=O)(=O)c1ccc(-c2nnco2)cc1
→ 8	18%	-0.3%	-1.8	-3	14%	9%
CC(=O)N1CCc2c(sc(NC(=O)c3ccc(S(=O)(=O)N(C)C)cc3)c2C#N)C1
→ 2	.	1.0%	.	.	0%	-8%
Cc1ccc(S(=O)(=O)N2CCC(C(=O)OCC(=O)N3CCCC(C)C3)CC2)cc1C (stereo not given)
→ 8	.	-3.4%	.	0	-24%	-2%
Cc1cc(C)c(S(=O)(=O)n2ccc(-c3ccc(OCCN(C)c4ccccn4)cc3)n2)c(C)c1
→ -6	14%	-3.1%	2.3	17	0%	7%
COc1cc(C(=O)NCc2ccccc2)ccc1OC(F)F
→ 4	-2%	0.3%	4.0	-20	-9%	-1%
CCOc1ccc(-n2cnc3scc(-c4ccc(OC)c(OC)c4)c3c2=O)cc1
→ -24	0%	1.6%	-5.7	7	6%[15.4 µM]	-66%
Cc1nn2c(-c3ccc(S(=O)(=O)N4CCN(C)CC4)o3)nnc2c2ccccc12
→ ?	-3%	-12%	-3.2	3	?	-9%
O=C(Nc1cc(S(=O)(=O)N2CCOCC2)ccc1N1CCOCC1)c1cn2ccccc2n1
→ .	-8%	.	6.1	17	42%[15.4 µM]	6%
COC(=O)c1ccc(N2CCN(C(C)=O)CC2)c(NC(=O)COc2ccccc2C)c1
→ -10	13%	.	-0.7	-7	16%	-26%
COc1ccc(NC(=O)c2ccccc2Oc2ccccc2)cc1
→ .	-5%	-0.3%	5.8	4	1%	-11%
O=C(Nc1ccc(CN2CCCCC2)cc1)c1ccc2c(c1)OCO2
→ -4	-1%	0.3%	3.9	10	2%	7%
CC(C)n1c(O)c(N=NC(=O)CNC(=O)CCc2ccccc2)c2ccccc21
→ 4	5%	0.8%	15	-4	22%	-7%
CCc1cc2cc(C)cc(C)c2[nH]c1=S
→ 0	56µM*	-6.5%	-2.4	22	5%	13%

# More structures follow:
# The line under a structure holds: CtBP-E1A blk	Sfp PPTase inh	ClpP mod	Menin MLL FP FL	TRPV1 potentiator	gsp agonist	gsp antagonist
COc1ccc(-c2cc(C(=O)Nc3cccc(S(=O)(=O)NCc4ccco4)c3)c3ccccc3n2)cc1OC
→ .	13%	-25%	12	2	25%	-14%
CC(CNC(=O)c1ccc(C(C)(C)C)cc1)CN(C)C (stereo not given)
→ 0	?	-0.3%	-2.9	-6	-18%	8%
Cc1ccccc1N1CCN(C2CCCN(C(=O)c3cc(CC(C)C)nn3C)C2)CC1 (stereo not given)
→ -3	17%	-0.3%	.	-13	1%	-18%
CCCCC(CC)C(=O)NCCc1ccc(S(N)(=O)=O)cc1 (stereo not given)
→ -2	5%	1.5%	-0.4	4	-34%[inhibitor]	2%
Cc1csc(NC(=O)c2cccc(S(=O)(=O)N3CCN(C)CC3)c2)n1
→ -1	-9%	.	2.0	-1	0%[15.4 µM]	14%
CCCCNC(=O)CCn1nc(-c2ccccc2)ccc1=O
→ 0	11%	?	-1.1	-12	-2%	-10%
CCN(CC)CCNC(=O)c1cc(-c2ccc(Br)s2)nc2ccccc12
→ .	-23%	4.3%&4.1%	-4.3	12	?	12%
CC(C)CCNC(=O)CN(Cc1ccccc1Cl)C(=O)CCC(=O)Nc1ccccn1
→ -2	9%	.	-1.2	-20	-44%	5%
COc1ccc(C2SCCN2C(=S)Nc2ccc(Cl)cc2)cc1 (stereo not given)
→ -2	-4%	-2.5%	2.9	-2	-2%	0%
O=C(CN1CCN(S(=O)(=O)c2ccc(Cl)cc2)CC1)NCc1cccs1
→ -3	.	-8.8%	.	-13	-47%[inhibitor]	10%
O=S(=O)(c1ccc(Cl)c(NC(=S)Nc2cccc(O)c2)c1)N1CCOCC1
→ 0	?	-2.2%	1.7	4	-3%[15.4 µM]	0%
CCOC(=O)c1ccc(COC(=O)c2cc(=O)[nH]c3ccccc23)o1
→ -3	-8%	16µM*	4.0	2	-8%	7%

# Screening data deposited in PubChem BioAssay by National Center for Advancing Translational Sciences (NCATS).
